# Screening results as filed in PubChem.
# PV pol inh – inhibitors of poliovirus RNA polymerase binding and polymerization | poliovirus polymerase elongation, fluorescence polarization; active compounds read low | AID 588519 | P03300 | % elongation, % (compound at 16.7 µg/mL) | 0.66% of 150,000 active; in the data active = % elongation below about 90%; note: some results filed as inactive read as strong as hits
# Target sequence (P03300 1749-2209 limits assumed): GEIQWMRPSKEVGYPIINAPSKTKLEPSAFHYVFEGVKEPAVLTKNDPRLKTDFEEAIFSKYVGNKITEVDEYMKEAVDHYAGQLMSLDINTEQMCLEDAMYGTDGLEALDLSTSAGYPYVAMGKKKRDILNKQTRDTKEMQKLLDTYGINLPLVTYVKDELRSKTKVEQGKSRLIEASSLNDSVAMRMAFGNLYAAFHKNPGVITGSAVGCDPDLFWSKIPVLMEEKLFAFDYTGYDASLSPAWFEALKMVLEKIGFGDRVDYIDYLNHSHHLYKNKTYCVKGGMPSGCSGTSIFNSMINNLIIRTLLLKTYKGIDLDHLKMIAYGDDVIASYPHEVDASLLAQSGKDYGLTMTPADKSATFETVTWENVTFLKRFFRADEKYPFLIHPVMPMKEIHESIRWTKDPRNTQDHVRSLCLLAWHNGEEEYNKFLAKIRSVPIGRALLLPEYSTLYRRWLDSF
# PV pol inh intensity – recorded beside PV pol inh, whose call it bears; % elongation; measured here: total intensity read-out; formula for this scale not given here;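 total fluorescence in place of polarization; lower means less elongation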
# An asterisk follows results filed as active. Not all compounds are listed, so the mix of outcomes need not match the whole.
SMILES,PV pol inh,PV pol inh intensity
COc1ccc2nc(N3CCN(C(=O)CS(=O)(=O)c4ccc(C)cc4)CC3)sc2c1,102,96
COc1cccc(CNCc2cccn2-c2nnc(N3CCN(c4ccccc4)CC3)s2)c1,108,111
CN1c2ccccc2-c2nc(SCC(=O)Nc3ccccc3)ncc2S1(=O)=O,103,108
Cc1ccc(-c2ccc(=O)n(CC(=O)NCCc3ccc(Cl)cc3)n2)cc1,112,115
CCN(CC)c1nn2c(=O)c(C(=O)NCCc3ccccc3)cnc2s1,105,106
O=C(NCCN1CCN(c2cccc(Cl)c2)CC1)C1COc2ccccc2C1 (centres undefined),106,108
COc1ccc(C2=C(Nc3ccc(C)c(C)c3)c3ccccc3C2=O)cc1,104,105
O=S(=O)(c1ccc2c(c1)CCN2)N1CCCCCC1,104,106
CCOc1ccc(N(C)C(=O)CS(=O)(=O)c2cccc3nsnc23)cc1,113,108
CCc1ccc(N2C(=O)CN(S(=O)(=O)CC)CC2(C)C(=O)NC2CCCCC2)cc1 (centres undefined),100,101
CCn1c(CN2CCCCC2)nc2cc(NC(=O)COc3ccc([N+](=O)[O-])cc3)ccc21,101,106
CCC(CC)C(=O)Nc1ccc(-c2cn3cccnc3n2)cc1,106,110
Cc1c(C(=O)OC2CCC(C)CC2)[nH]c2c1C(=O)CC(c1ccc(F)cc1)C2 (centres undefined),102,104
CSc1cccc(NS(=O)(=O)c2cn(C)c(C)n2)c1,106,113
CC1=C(c2ccc(C)c(C)c2)S(=O)(=O)N=C1N1CCC(C(=O)NCCc2ccc(Cl)cc2)CC1,114,108
COc1ccc2c(c1)c(=O)c(S(=O)(=O)c1ccc(Cl)cc1)cn2Cc1cc(C)ccc1C,102,103
Cc1c(Cl)cccc1NC(=O)COCc1cc(-c2ccc3c(c2)OCO3)on1,107,113
O=C(Cn1cnc2c(nc3n2CCCCC3)c1=O)Nc1ccc(F)c(Cl)c1,94,91
Cc1ccc(Sc2c(C)nn(C(=O)c3ccc(Cl)cc3)c2C)cc1,104,104
COc1cc(C(=O)Nc2ccc3oc(-c4ccccc4)nc3c2)cc(OC)c1OC,106,112
O=C1CCSc2ccc(S(=O)(=O)Nc3ccc(Cl)c(C(F)(F)F)c3)cc2N1,115,114
O=c1c2ccccc2n(Cc2c(F)cccc2Cl)c(=O)n1Cc1ccccc1,104,103
COc1cc(NC(=O)CSc2nc3nc(C)c(Cc4ccccc4)c(C)n3n2)cc(OC)c1,109,98
Cc1cccc(OCC(=O)Nc2cccc(C(=O)OCc3cc(=O)n4nc(C(C)C)sc4n3)c2)c1,107,111
CCc1ccccc1NC(=O)Nc1cc(C(=O)NCc2ccc(OC)cc2)ccc1N1CCCC1,108,100
Cc1ccc(NC(=O)CSc2nc(-c3ccc(F)cc3)cc(C(F)(F)F)c2C#N)cc1,107,109
CCN(CC)c1ccc(NC(=O)c2c(C)nn(-c3ccc(F)cc3)c2-n2cccc2)c(C)c1,106,114
Cc1cc(C)c(NC(=O)CN2c3ccccc3S(=O)(=O)c3ccccc32)c(C)c1,105,96
Cc1ccc(-c2nc3sccn3c2Nc2ccccc2C)cc1,107,103
O=C(NCCc1csc(-c2cccc(F)c2)n1)c1cccs1,112,110
Cc1cc2oc(C(=O)N(Cc3ccc(N(C)C)cc3)CC3CCCO3)c(C)c2cc1Cl (centres undefined),113,111
CCOC(=O)c1noc2ncn(CC(=O)Nc3cccc(Cl)c3)c(=O)c12,98,103
CCOc1ccc(CNC(=O)C2CCCN(c3nn4cc(-c5ccc(F)cc5)nc4s3)C2)cc1 (centres undefined),106,105
COc1ccc(CCNC(=O)CN(c2ccccc2OC)S(=O)(=O)c2ccc(C)cc2)cc1,101,104
COc1cccc(NC(=O)Cn2cc(C(=O)c3ccco3)c3ccccc32)c1,109,112
CCOC(=O)c1c(C)[nH]c(C)c1S(=O)(=O)N1CCC(C(=O)Nc2ccc(C)cn2)CC1,115,117
CCc1c(C)sc2c1CCN(C(=O)Nc1ccccc1C(=O)OC)C2c1ccc(OC)cc1 (centres undefined),111,115
COc1ccc(C(=O)Nc2ccccc2SCc2cc(=O)c3cccc(C)c3[nH]2)cc1,102,103
O=C1CC(c2ccc(Br)cc2)c2c(c3ccccc3oc2=O)O1 (centres undefined),101,92
CCc1ccccc1NC(=O)Nc1ccc2snnc2c1,111,112
COc1ccc(NC(=O)N2CCN(c3cc(-c4noc(C)n4)ccc3C)CC2)c(OC)c1,107,96
CCn1c(C(=O)N2CCCC(C(=O)N3CCN(c4ccccc4)CC3)C2)cc2sccc21 (centres undefined),103,107
COc1cccc(-c2cc(C(=O)Nc3cc(OC)c(OC)c(OC)c3)on2)c1,103,102
CCN(C(=O)CSc1nc2ccccc2n1CC(=O)N1CCCC(C)C1)c1ccccc1 (centres undefined),101,100
COc1ccc(OCCCn2c(=O)oc3ccc(C)cc32)cc1,105,101
CCc1ccc(-n2c(=O)c3c4c(sc3n(Cc3ccccc3C#N)c2=O)CCC4)cc1,104,104
CC(C)CC(=O)Nc1cccc(-c2nc3ccccc3[nH]2)c1,103,104
Cn1cc(C(c2ccccc2)c2ccc(Cl)s2)c2ccccc21 (centres undefined),105,106
Cc1ccc(Cl)cc1N1CCN(C(=O)Cc2c(C(=O)O)c(C)cn2C)CC1,107,108
O=C(Cn1cc(C(=O)c2ccco2)c2ccccc21)Nc1ccccc1Cl,106,107
Cc1ccc(NC(=O)Cn2cc(C(=O)C3CCCCC3)c3ccccc32)c(C)c1,106,111
CCc1nn2c(=O)cc(COC(=O)c3ccco3)nc2s1,99,95
COc1ccc(Nc2cc(C)c3cc(NC(=O)COc4cccc(C)c4)ccc3n2)cc1,109,113
Cc1cccc2sc(N(Cc3cccnc3)C(=O)c3cccs3)nc12,105,107
Cc1ccc(-c2nc3cccc(C)n3c2Nc2ccc3c(c2)OCO3)o1,105,112
COc1ccc(CNC(=O)c2ccc3c(c2)NC(=O)C(CS(=O)(=O)Cc2ccccc2Cl)N3)cc1 (centres undefined),147,162
Cc1c(C(=O)Nc2cccc(Cl)c2)oc2ccc(S(=O)(=O)N3CCOCC3)cc12,113,112
CCOc1ccc(-c2cc(C(=O)NCCc3ccccc3)c3c(-c4ccc(C)cc4)[nH]nc3n2)cc1,115,103
CCOC(=O)C1CCN(c2c(C(=O)c3ccc(OC)cc3)cnc3ccccc23)CC1,104,99
CCOc1ccccc1NC(=O)CCc1c(C)nn(-c2ccc(N3CCOCC3)nn2)c1C,101,103
# New compounds follow
SMILES,PV pol inh,PV pol inh intensity
CCOC(=O)c1ccccc1NC(=O)N1CCN(Cc2cc(=O)n3nc(-c4ccccc4)sc3n2)CC1,112,111
COc1cc(C(=O)N2CCN(CCc3ccccn3)CC2)cc(OC)c1OC,108,101
COCc1cc(C)n(CC(=O)Nc2ccc(NC(C)=O)cc2)c(=O)c1C#N,103,106
Cc1nc(-c2ccc(S(=O)(=O)N3CCN(c4ccccc4F)CC3)cc2)co1,86,166
Cc1ccc(-c2nc3sc(CCNC(=O)c4ccc(Br)o4)c(C)n3n2)cc1,102,107
O=C(CCSCc1cccc(Cl)c1)N1CCN(c2ccc(Cl)cc2)CC1,115,117
COc1ccc2c(c1)CC(C(=O)NCCc1ccc(S(N)(=O)=O)cc1)CO2 (centres undefined),111,110
COc1cccc(CNC(=O)c2ccc3nc(-c4ccccc4)c(-c4ccccc4)nc3c2)c1OC,108,108
CCOCCc1nn2c(=O)cc(COC(=O)c3ccc(NC(=O)C4CCCCC4)cc3)nc2s1,101,102
CCOC(=O)C1CCN(C(c2ccc(C)cc2)c2sc3nc(-c4ccco4)nn3c2O)CC1 (centres undefined),108,110
COc1ccc(CCNc2ncnc3c2nnn3C)cc1OC,113,110
COc1cc(OC)c(NC(=O)Cn2c(=O)oc3cc(S(=O)(=O)N4CCCC4)ccc32)cc1Cl,105,109
CCOC(=O)c1cc(OC(=O)c2cc(Cl)ccc2OC)n(-c2ccccc2)n1,106,108
CCOc1ccccc1CN1CCN(S(=O)(=O)c2ccccc2)CC1,104,98
CCn1cc(S(=O)(=O)c2ccccc2)c(=O)c2cc(F)c(N3CCCCCC3)cc21,102,103
Cc1nc2c(c(C)nn2C(C)(C)C)c(C)c1CCC(=O)Nc1ccc(F)cc1,105,106
Cc1cc(Nc2cccc(C(F)(F)F)c2)nc2ccc(NC(=O)Cc3ccc(Cl)cc3)cc12,108,109
COc1ccc2c(c1)cc1c(=O)n(CC(=O)NCCc3ccccc3)nc(C)n12,105,108
CN(C)C(=O)c1ccc(NC(=O)Cn2nc(-c3ccccc3)c3ccccc3c2=O)cc1,111,109
COC(=O)c1cc(NC(=O)Cn2nc(C)n3cccc3c2=O)cc(C(=O)OC)c1,108,114

# As a short view, some entries already given.
SMILES,PV pol inh,PV pol inh intensity
COc1ccc(Nc2cc(C)c3cc(NC(=O)COc4cccc(C)c4)ccc3n2)cc1,109,113
Cc1cccc2sc(N(Cc3cccnc3)C(=O)c3cccs3)nc12,105,107
Cc1ccc(-c2nc3cccc(C)n3c2Nc2ccc3c(c2)OCO3)o1,105,112
COc1ccc(CNC(=O)c2ccc3c(c2)NC(=O)C(CS(=O)(=O)Cc2ccccc2Cl)N3)cc1 (centres undefined),147,162
Cc1c(C(=O)Nc2cccc(Cl)c2)oc2ccc(S(=O)(=O)N3CCOCC3)cc12,113,112
CCOc1ccc(-c2cc(C(=O)NCCc3ccccc3)c3c(-c4ccc(C)cc4)[nH]nc3n2)cc1,115,103
CCOC(=O)C1CCN(c2c(C(=O)c3ccc(OC)cc3)cnc3ccccc23)CC1,104,99
CCOc1ccccc1NC(=O)CCc1c(C)nn(-c2ccc(N3CCOCC3)nn2)c1C,101,103
CCOC(=O)c1ccccc1NC(=O)N1CCN(Cc2cc(=O)n3nc(-c4ccccc4)sc3n2)CC1,112,111
COc1cc(C(=O)N2CCN(CCc3ccccn3)CC2)cc(OC)c1OC,108,101
COCc1cc(C)n(CC(=O)Nc2ccc(NC(C)=O)cc2)c(=O)c1C#N,103,106
Cc1nc(-c2ccc(S(=O)(=O)N3CCN(c4ccccc4F)CC3)cc2)co1,86,166
Cc1ccc(-c2nc3sc(CCNC(=O)c4ccc(Br)o4)c(C)n3n2)cc1,102,107
O=C(CCSCc1cccc(Cl)c1)N1CCN(c2ccc(Cl)cc2)CC1,115,117
COc1ccc2c(c1)CC(C(=O)NCCc1ccc(S(N)(=O)=O)cc1)CO2 (centres undefined),111,110
COc1cccc(CNC(=O)c2ccc3nc(-c4ccccc4)c(-c4ccccc4)nc3c2)c1OC,108,108
CCOCCc1nn2c(=O)cc(COC(=O)c3ccc(NC(=O)C4CCCCC4)cc3)nc2s1,101,102
CCOC(=O)C1CCN(C(c2ccc(C)cc2)c2sc3nc(-c4ccco4)nn3c2O)CC1 (centres undefined),108,110
COc1ccc(CCNc2ncnc3c2nnn3C)cc1OC,113,110

# More compounds.
SMILES,PV pol inh,PV pol inh intensity
COc1cc(OC)cc(C(=O)Nc2nc(-c3nnn(-c4ccc(F)c(Cl)c4)c3C)ns2)c1,98,108
CCc1ccc(N2CCn3c2nc2c3c(=O)n(Cc3ccc(F)cc3)c(=O)n2C)cc1,107,114
N#Cc1ccc(NC(=O)C2Cc3ccccc3CN2S(=O)(=O)c2ccc(F)cc2)cc1 (centres undefined),114,112
CCCc1c(C)c2ccc(O)c(CN3CCN(c4ccc(F)cc4)CC3)c2oc1=O,113,111
Cc1ccc(CNS(=O)(=O)c2ccc3c(c2)CCN3S(C)(=O)=O)cc1,113,112
COc1ccccc1NC(=O)CSc1nnc(-c2nonc2NC(C)=O)n1-c1ccccc1,108,112
Cc1nc(-c2cccc(S(=O)(=O)N3CCC(C(=O)NCc4ccccc4)CC3)c2)no1,105,106
Cc1ccc(OCc2nc(C#N)c(NCCc3ccccc3)o2)cc1,100,102
Cc1ccc(C(=O)NCCSc2c(C)[nH]c3ccccc23)cc1C,106,107
CCCN(C(=O)CCc1nc(-c2ccc(OC)cc2)no1)c1ccccc1F,117,118
O=C(CCC1N=C2c3ccccc3N=C(SCc3ccccc3F)N2C1=O)NCCc1ccccc1 (centres undefined),103,104
Cn1cc(-c2cc3n(n2)CCC(=O)N3CCCC(=O)Nc2ccccc2F)c2ccccc21,110,93
COc1cc(C2c3c(oc4ccccc4c3=O)C(=O)N2c2nc(C)c(C)s2)ccc1O (centres undefined),102,105
Cc1ccc(-c2cc(-c3coc4ccc(Cl)cc4c3=O)c3c(n2)-c2ccccc2OC3)cc1,102,106
CCC(Sc1nc2cc(OC)c(OC)cc2c(=O)n1CCc1ccc(Cl)cc1)C(=O)NCCOC (centres undefined),104,111
Cc1ccc(NC(=O)c2nc(S(C)(=O)=O)ncc2N(Cc2ccco2)Cc2ccco2)cc1C,108,110
COCCc1nn2c(=O)cc(COC(=O)c3ccccc3C)nc2s1,108,106
COc1ccc(-c2cc(C(F)(F)F)n3nc(C(=O)Nc4ccc(Cl)cc4C(F)(F)F)cc3n2)cc1OC,106,108
COc1ccc2cc(-c3cn4c(n3)sc3cc(F)ccc34)c(=O)oc2c1,116,119
Cc1ccc(-c2csc(-c3c(N)c(C(=O)c4ccc5c(c4)OCO5)n4ccccc34)n2)cc1C,106,109

# An excerpt from further up, as a working copy:
SMILES,PV pol inh,PV pol inh intensity
COc1ccc2cc(-c3cn4c(n3)sc3cc(F)ccc34)c(=O)oc2c1,116,119
Cc1ccc(-c2csc(-c3c(N)c(C(=O)c4ccc5c(c4)OCO5)n4ccccc34)n2)cc1C,106,109

# Following part:
SMILES,PV pol inh,PV pol inh intensity
COc1cc(NC(=O)CCS(=O)(=O)c2ccc(Br)cc2)cc(OC)c1,102,108
CC(C)N(Cc1nc(-c2ccc(Cl)cc2)no1)C(=O)c1ccco1,108,112
COc1ccc(-c2nc(CSc3nnc(C)n4c3cc3occc34)c(C)o2)cc1OC,100,105
Cc1ccc(C)c(N2CCN(c3nc4ccc(C)cc4nc3-n3nc(C)cc3C)CC2)c1,110,112
O=C(NCCS(=O)(=O)N1CCN(c2ccc(F)cc2)CC1)c1cccc(C(F)(F)F)c1,107,102
COc1ccc(-n2c(SCC(=O)Nc3nnc(C)s3)nc3c([nH]c4ccccc43)c2=O)cc1,110,111
Cc1cccc(-c2nc3nc(C)cc(NC(C)c4ccccc4)n3n2)c1 (centres undefined),108,111
